Bioassay records as filed in PubChem BioAssay.
HIV Env fusion: blocks HIV Env-driven cell-cell fusion. HeLa-JRFL Env/CEM21 cell fusion, luciferase. inhibition, % at 12.3 µM. hit rate 1.1% among 360,000. AID 651610;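 active = mean replicate inhibition score of at least 50 and every replicate individually at or above 50; inconclusive = only one of the two criteria met; inactive = mean below 50 and not all replicates reaching 50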;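 note: 0% = plate neutral controls and 100% = maraviroc near 300 nM; one replicate is shown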
eIF4H FP inh: inhibitors of RNA binding by human eIF4H | Q15056 | eIF4H fluorescence polarization binding assay | inhibition, % at 35 µM | hit rate 0.94% among 290,000 | AID 2012;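 active = 50% or more with normal probe brightness, or confirmed in later tests; inconclusive = above 50% with abnormal brightness, or retests that disagree; inactive = below 50% or failed in later tests; about a fifth of its hits are not listed in these tables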;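 note: calls also rest on retests at 20 µM and on dose response follow-up; 0% = protein and probe with vehicle and 100% = probe without protein; strong numbers were not always called active; many hits fall short of the cut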
PABP polyA inh: PABP-poly(A) binding inhibition | hit rate 1% among 290,000 | P11940 | inhibition, % at 35 µM | PABP-poly(A) RNA binding, fluorescence polarization;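 active = 50% or more with normal probe brightness, or confirmed in later tests; inconclusive = above 50% with abnormal brightness, or retests that disagree; inactive = below 50% or failed in later tests; about a fifth of its hits are not listed in these tables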;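 note: calls also rest on retests at 20 µM and on dose response follow-up; controls were probe without protein and protein plus probe with vehicle; some compounds called inactive have numbers as strong as hits; many hits fall short of the cut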
Target sequence (P11940 whole entry, looked up): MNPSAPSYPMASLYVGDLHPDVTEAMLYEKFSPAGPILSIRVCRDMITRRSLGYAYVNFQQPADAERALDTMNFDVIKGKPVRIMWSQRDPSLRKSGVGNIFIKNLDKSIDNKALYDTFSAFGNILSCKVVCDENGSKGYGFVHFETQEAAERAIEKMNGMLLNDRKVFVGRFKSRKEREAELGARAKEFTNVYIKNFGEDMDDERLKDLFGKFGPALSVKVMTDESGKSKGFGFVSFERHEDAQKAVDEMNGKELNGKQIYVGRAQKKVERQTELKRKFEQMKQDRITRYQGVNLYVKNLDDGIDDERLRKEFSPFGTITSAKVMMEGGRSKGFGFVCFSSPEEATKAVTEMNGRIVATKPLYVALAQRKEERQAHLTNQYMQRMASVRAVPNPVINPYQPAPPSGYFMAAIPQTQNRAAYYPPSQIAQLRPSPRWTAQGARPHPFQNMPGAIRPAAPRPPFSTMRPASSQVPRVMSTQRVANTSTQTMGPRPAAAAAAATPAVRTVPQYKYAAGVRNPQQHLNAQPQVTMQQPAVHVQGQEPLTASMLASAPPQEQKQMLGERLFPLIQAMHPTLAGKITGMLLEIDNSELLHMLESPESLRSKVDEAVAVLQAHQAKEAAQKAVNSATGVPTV
Rce1 inhib: yeast Ras-converting enzyme inhibition. hit rate 0.27% among 290,000. yeast membranes, quenched prenylated peptide cleavage fluorescence. Q03530. calls only;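 active = fall in fluorescence gain of 50% or more versus controls, with final raw signal at or below 3038400; inconclusive = same 50% fall but final raw signal above 3038400; inactive = fall in fluorescence gain under 50%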;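 note: plate controls were neutral control wells for no effect and wells lacking membranes for full effect; tested at 10 µM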
Target sequence (Q03530 whole entry, looked up): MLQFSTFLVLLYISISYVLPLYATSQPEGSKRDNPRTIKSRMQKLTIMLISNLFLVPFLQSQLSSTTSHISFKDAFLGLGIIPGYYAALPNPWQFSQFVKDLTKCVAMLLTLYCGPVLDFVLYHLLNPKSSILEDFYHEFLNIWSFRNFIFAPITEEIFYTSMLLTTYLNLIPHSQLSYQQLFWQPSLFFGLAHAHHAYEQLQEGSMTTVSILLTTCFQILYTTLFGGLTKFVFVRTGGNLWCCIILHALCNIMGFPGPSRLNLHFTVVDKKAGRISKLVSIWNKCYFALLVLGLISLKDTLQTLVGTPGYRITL
MT1-MMP act inh: MT1-MMP (human) activation inhibition; P50281; HT1080 RFP-PRO-GFP cells, GFP/RFP ratio fluorescence, overnight; percent of plate control window, DMSO zero; GFP/RFP ratio change, % at 20 µM; hit rate 0.061% among 360,000; AID 651647;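 active = GFP/RFP ratio change of at least 30% with cell ATP level not reduced by more than half and red fluorescence within 50% of control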; note: strong numbers were not always called active
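Test system: HT1080 cells expressing an RFP-PRO-GFP fluorescent reporter construct / Compound dosing: single-point 20 µM compound, 1% DMSO / Schedule: cells overnight before dosing, compound overnight, 37 °C, 5% CO2 / Evaluation: GFP/RFP fluorescence ratio / Control set: DMSO and RFP-L50D-GFP cell wells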
CSC inhib: blocks cancer stem cells; cancer stem cell-like cells viability, luminescence; inhibition, % at 7.5 µM; hit rate 1.1% among 300,000; AID 2717;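 active = mean at 75% or more and at least half the replicates too; inconclusive = mean and replicates disagree; tested in HMLE shEcad cells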;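 note: 0% = median of negative and 100% = median of positive control wells; the first replicate is given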
UUG fidelity: yeast start codon fidelity modulation; hit rate 0.13% among 350,000; S. cerevisiae UUG-firefly luciferase reporter, luminescence/redox ratio; AID 602363; activity score, % at 18.7 µM;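 active = replicate mean at a twofold rise or more, about +100% in these data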;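 note: firefly luciferase made from a UUG start codon reports start codon fidelity; reporter light over untreated wells divided by growth signal over untreated wells; some hits fall short of that in this replicate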
MT1-MMP act inh RFP: recorded beside MT1-MMP act inh, whose call it bears; RFP signal change, %; measured here: RFP expression control read;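 0 = vehicle wells; hits needed this value within 50% of zero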
* hit, by the source's call; i = inactive; ? = inconclusive; nt = not tested or not shown; & = joins results of further samples.

SMILES	HIV Env fusion	eIF4H FP inh	PABP polyA inh	Rce1 inhib	MT1-MMP act inh	MT1-MMP act inh RFP	CSC inhib	UUG fidelity
COc1ccccc1C(=O)NC1CCN(C(=O)Nc2ccc(F)cc2)CC1	10	22	12	i	5	-1	2	11
COc1ccc(C2CN=NC23CCc2ccccc2C3=O)cc1 (centres undefined)	0	-1	0	i	-5	-1	61	3
Fc1cccc(Cc2c(C3CCCCC3)nc3ccc(Cl)cn23)c1	18	nt	nt	nt	0	-5	nt	-13
Brc1ccccc1Cn1cnc2ccccc21	10	-3	-2	i	-2	-14	5	-26
CCOC(=O)C(=Cc1ccccc1OC)C(=O)OCC	-32	4	-7	i	-4	-6	53	448*
CCOC(=O)CN1C(=O)SC(Nc2ccc(C)cc2)C1=O (centres undefined)	3	2	5	i	-3	0	6	-11
Cc1cc(SC(C)C(=O)NCC(=O)Nc2ccc(F)c(F)c2F)nc2ccccc12 (centres undefined)	31	-5	4	i	1	5	-4	-6
COc1ccccc1Cc1c(C(C)(C)C)nc2c3ccccc3ccn12	25	nt	nt	nt	-11	-15	nt	25
CCOC(=O)Cn1c(=O)oc2cc(S(=O)(=O)Nc3cc(Cl)ccc3OC)ccc21	10	6	8	i	-2	0	-20	-2
O=S(=O)(c1ccccc1)N1CCN(c2ncnc3scc(-c4ccccc4)c23)CC1	18	-19	-9	nt	-2	2	18	-6
COc1ccc(N2CCN(C(C)C(=O)N(C)Cc3ccccc3)CC2)cc1 (centres undefined)	-7	-4	4	i	-2	0	-5	-12
CCN1CCN(CC#CCOc2ccccc2OC)CC1	13	6	8	i	2	4	0	-14
Cc1ccc(CN=c2c([N+](=O)[O-])nn(-c3cccc(C)c3)n2O)cc1	-21	3	7	i	9	3	2	nt
O=C1CCCN1CCC1CCN(C2CC(=O)N(Cc3ccc(N4CCCC4=O)cc3)C2=O)CC1 (centres undefined)	nt	4	-6	i	3	4	-13	nt
CN(C)/C=C(\C=N\OCc1ccc(Cl)cc1Cl)C(=O)Nc1ccc(Cl)c(Cl)c1	32	13	-4	i	-2	2	85*	-11
O=C(Cn1cccc1C(=O)c1ccccc1)NCCN1CCCCCC1	nt	0	-1	i	-5	1	-1	9
CC(=O)N1N=C(N)SC12CCCC2	17	-8	4	i	0	-1	18	-16
Cc1cc(=O)oc2c(CN(C)Cc3ccccc3)c(O)ccc12	-44	-9	-6	?	5	8	8	-19
CCOC(=O)C1(c2ccccc2)CCCNC1=O (centres undefined)	-10	nt	nt	nt	-2	0	nt	-19
C[n+]1ccc(/C=C/c2ccccc2O)c2ccccc21	-9	23	2	i	-6	-6	3	nt
O=C(/C=C/[C@H]1O[C@@H](n2ccc(=O)[nH]c2=O)[C@H](O)[C@@H]1O)NC(c1ccccc1)c1ccccc1	2	nt	nt	nt	0	1	nt	-10
Cc1ccc2nc(N/N=C\c3ccc([N+](=O)[O-])o3)nc(-c3ccccc3)c2c1	nt	13	12	i	-2	2	53	-16
COc1ccc(-n2nc([N+](=O)[O-])c(=NC3CCN(Cc4ccccc4)CC3)n2O)cc1	6	-1	-1	i	0	-5	3	5
O=C(NCCO)/C(=C/c1ccc(Br)cc1)NC(=O)c1cccs1	nt	-8	-6	i	4	5	4	-16
Nc1nc2cc(S(=O)(=O)NC3=NCCCCC3)ccc2s1	8	-10	-6	i	-1	-2	-4	nt
COc1ccc(NC(=O)CN(C)C(=O)CCC(=O)c2ccc(C)cc2)cc1	0	nt	nt	i	-5	-2	nt	-1
CCOC(=O)c1c(N)nn(C(C)=O)c1-c1ccccc1	nt	-4	-1	i	-4	9	-22	-12
CC1CN(C2=NC(=O)/C(=C/c3ccncc3)S2)CC(C)O1 (centres undefined)	5	3	0	i	-1	-3	-2	-3
COc1ccc(S(=O)(=O)N2CCCCC2)cc1NC(=O)c1ccc2ccccc2n1	-12	4	1	i	-14	-13	-8	-15
COc1ccc(NC(=O)c2c(-c3c(Cl)cccc3Cl)noc2C)cn1	0	-5	3	i	-3	0	-8	7
COC(=O)c1sc2nc3c(cc2c1N)C(=O)CC(C)(C)C3	nt	2	1	i	-2	-3	nt	-3
O=C(/C=C/c1ccc2c(c1)OCO2)Nc1nc(-c2ccc(F)cc2F)cs1	nt	-8	-1	i	nt	nt	95*	nt
Cc1nn(-c2ccccc2)c2c1cc1c(=O)n(C)c(=O)nc-1n2-c1ccccc1F	-7	0	13	i	0	1	3	-8
CC(C)C[C@H]1CN([C@@H](Cc2ccc(O)cc2)CN2CCC[C@@H]2CN2C(=S)NC[C@@H]2Cc2ccccc2)C(=S)N1CCc1ccccc1	12	nt	nt	nt	-3	-11	nt	-15
Nc1nnc(SCC(=O)Nc2cccc(S(N)(=O)=O)c2)s1	-7	-4	0	i	5	5	-3	-6
O=C1/C(=C/c2ccc3c(c2)OCO3)Oc2cc(OCC(=O)N3CC(O)C[C@H]3C(=O)O)ccc21 (some centres undefined)	nt	-17	-11	i	0	1	-2	-7
CC(=NNC(=O)c1cccs1)c1ccc2c(c1)OCCO2	nt	nt	nt	nt	0	3	-17	-25
Cc1nc2ccccn2c1C(=O)NN=C1CCCC1	8	1	-13	i	1	3	-8	nt
Cc1nc2ccc(C(=O)N3CCN(c4ccccc4)CC3)cn2c1N(C)C(=O)CCc1ccccc1	3	nt	nt	nt	-1	-2	nt	-11
CC1=CC(C)(C)Nc2ccc(OS(=O)(=O)c3ccc(C)cc3)cc21	23	18	24	i	3	-11	4	-4
CC(NC(=O)c1ccc([N+](=O)[O-])cc1[N+](=O)[O-])c1ccc(-c2ccccc2)cc1 (centres undefined)	24	0	-2	i	5	0	-8	-7
O=C(NCCc1ccc(Cl)cc1)c1n[nH]c2ccccc12	-23	-16	2	i	5	3	5	nt
COc1ccc(CCNS(=O)(=O)c2ccc(S(=O)(=O)N3CCCC3)cc2)cc1OC	nt	3	-15	i	-1	-9	0	nt
CCn1c(SCc2ccccc2)nnc1-c1ccc(S(=O)(=O)N2CCCCC2)cc1	-34	6	3	i	-15	-11	-1	-5
COC(=O)c1cccc([N+](=O)[O-])c1CS(=O)(=O)c1ccc(C)cc1	-1	0	1	i	4	1	-6	-5
O=C(Nc1ccnn1C1CCN(C2CCC2)CC1)c1ccccc1Cl	-17	2	-10	i	-8	-2	-6	-17
CC(C)(C)Cc1c(-c2cccc(Cl)c2)nc2ccc(Cl)cn12	-15	nt	nt	nt	6	11	nt	62
S=c1[nH]nc(-c2ccncc2)n1Cc1ccco1	-107	2	6	i	-2	1	-16	-16
CCn1ncc(CN2CCC(C(=O)Nc3cccc(-c4cccc(F)c4)c3)CC2)c1C	4	0	1	i	3	3	nt	-15
O=C(NCCN1CCOCC1)c1cc(-c2ccc(Cl)c(Cl)c2)on1	6	-3	10	i	-1	-2	-14	-27
O=C(OCc1c(-c2ccccc2)ncc2ccccc12)c1ccc(F)cc1	8	nt	nt	nt	-1	-7	-10	2
COc1ccc(NS(=O)(=O)c2ccc(O)c(NC(=O)c3ccc(S(=O)(=O)N4CCCC4)cc3)c2)cc1	6	-5	-19	nt	3	-4	-2	-7
CSc1ccc(CN2CCC(C)(Oc3ccccc3F)C2)cc1 (centres undefined)	-21	nt	nt	nt	3	4	nt	-1
C/C=C(\NC(C)=O)c1ccccc1	-1	nt	nt	nt	-4	1	-19	-7
O=C(O)CC(C(=O)NCc1ccccc1)C1CCCO1 (centres undefined)	-19	3	-4	i	9	-6	-9	1
Cc1cccc(CCNCc2c(C(=O)O)c(C)n(-c3ccccc3)c2C)c1	29	2	0	i	-3	2	-1	1
CCOC(CNC(=O)c1cc2c(=O)n(CC)c3ccccc3c2s1)OCC	-4	-9	25	i	1	0	4	-7
Cc1nc(-c2ccccc2)sc1C(=O)/C=C/c1ccc(Cl)cc1	nt	-10	0	i	-4	-6	94*	-14
O=C(Nc1ccccc1NS(=O)(=O)c1ccc(F)cc1)C1CCC1	-4	-3	2	i	2	2	5	-14
COc1ccc(NC(=O)c2c(C)noc2-c2snnc2C)cc1	-7	1	0	i	-3	-7	9	nt
Additional structures
SMILES	HIV Env fusion	eIF4H FP inh	PABP polyA inh	Rce1 inhib	MT1-MMP act inh	MT1-MMP act inh RFP	CSC inhib	UUG fidelity
COc1ccccc1CNc1nc(NCc2cccs2)nc2ccsc12	42	nt	nt	nt	1	-17	nt	-37
COc1cccc(NC(=O)Nc2cc(C(=O)NC(C)C)ccc2N2CC3CC(C2)c2cccc(=O)n2C3)c1 (centres undefined)	-1	nt	nt	i	2	3	-9	-10
Cc1ccc(S(=O)(=O)N2CCN(C(=O)COC(=O)CCOc3ccccc3C)CC2)c(C)c1	-6	nt	nt	nt	1	5	nt	-4
Cc1noc(C)c1NC(=O)N(C)C[C@H]1Oc2ccc(NC(=O)c3ccncc3)cc2C(=O)N([C@H](C)CO)C[C@@H]1C	-12	nt	nt	nt	1	6	nt	-14&-4
Cc1ccc(Nc2cc(=O)n(C)c(=O)[nH]2)cc1C	-14	nt	nt	nt	0	2	nt	-11
CC(C)NC(=O)N(C)C[C@@H]1Oc2ncc(-c3cccc(C#N)c3)cc2C(=O)N([C@H](C)CO)C[C@@H]1C	-100	nt	nt	nt	-1	3	nt	-14&-8&-11
CCCCNC(=O)c1onc(CSc2ccc(Cl)cc2)c1C(=O)NCCCC	13	nt	nt	i	-1	-2	16	7
COc1cc(S(=O)(=O)Nc2cccc3cn[nH]c23)c(OC)cc1C	0	10	15	i	0	-2	7	9
COc1ccc(CN(C(=O)CCC(=O)N2CCCCC2)c2nccs2)cc1OC	19	-10	0	i	-14	-9	-7	nt
COC(=O)Cc1cc(OC)c(OC)cc1Cc1cc(OC)c(OC)cc1CC(=O)OC	-10	-12	0	i	6	-1	-2	-1
CSc1nc2c(c(=O)[nH]1)C(c1ccccc1)C1=C(CC(C)(C)CC1=O)N2 (centres undefined)	23	-18	-4	nt	2	1	1	nt
O=C(NNC1=NCCC1)c1cccc(Br)c1	27	0	8	i	8	9	-4	-16
CC(C)c1[nH]c(=O)c(C#N)c2c1COC(C)(C)C2	-1	-2	-8	i	1	2	nt	-8
Brc1ccc(C=Nc2ccc(Nc3ccccc3)cc2)s1	nt	1	-1	i	49*	26*	14	nt
COc1ccc(/C=N/NC(=O)c2ccc(NC(=O)c3cccc([N+](=O)[O-])c3)cc2)c(C(=O)O)c1OC	-5	5	13	i	1	2	4	-5
CC(C)c1ccccc1NC(=O)Nc1nnc([C@@H]2C[C@H](O)[C@@H](CO)O2)s1	-34	nt	nt	nt	-4	-1	nt	11
Cc1ccccc1-n1ncc(C(C)NS(=O)(=O)c2sccc2C)c1C (centres undefined)	nt	-7	-1	i	2	-3	2	-27
CCCCN1C(=O)CC(Nc2ccc(CC)cc2)C1=O (centres undefined)	nt	-6	-8	i	6	1	0	nt
O=C(NCCCN1CCCC1=O)C(=O)NCC1OCCCN1S(=O)(=O)c1ccccc1 (centres undefined)	-21	nt	nt	nt	3	4	nt	-42
Cc1cc(C)c(NC(=O)CCCN2CCN(C)CC2)c(C)c1	nt	-5	0	i	10	-2	-2	-13

Of the compounds above, these have a furan ring, fused or not.
SMILES	HIV Env fusion	eIF4H FP inh	PABP polyA inh	Rce1 inhib	MT1-MMP act inh	MT1-MMP act inh RFP	CSC inhib	UUG fidelity
Cc1ccc2nc(N/N=C\c3ccc([N+](=O)[O-])o3)nc(-c3ccccc3)c2c1	nt	13	12	i	-2	2	53	-16
S=c1[nH]nc(-c2ccncc2)n1Cc1ccco1	-107	2	6	i	-2	1	-16	-16
